# Assay outcomes: PubChem BioAssay, several laboratories
# Vif A3G: HIV-1 Vif–A3G interaction blockers – biochemical, TR-FRET, GST-Vif 1-94, biotin-A3G peptide, dose response retest, primary screen (AID 1117319); TR-FRET GST-Vif / biotin-A3G peptide binding; higher % means a stronger effect; test concentration not given here; strong numbers were not always called active; inhibition, %, or IC50 in µM where a hit was titrated; 0.57% of 260,000 active;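 active = above the screen mean plus three standard deviations and confirmed in dose response; inconclusive = results disagree or hit not tested in dose response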;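 also: Vif residues 1-94 fused to GST binding biotinylated APOBEC3G peptide 110-148; 0% = full assay without inhibitor and 100% = GST in place of GST-Vif; retest series ran down from 100 µM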
# ALR inh: blocks human ALR sulfhydryl oxidase activity | P55789 | purified ALR, DTT oxidation, H2O2 HRP-luminol luminescence | inhibition, % (test concentration not listed) | 3.8% of 290,000 active | AID 485317;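 active = mean and each replicate at 75% or more; inconclusive = only one of the two met; inactive = neither met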;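 also: stock transfer was 7.5 nL into about 7.5 µL; 0% = neutral wells and 100% = wells with inactivated enzyme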
# rRNA inh HTS: inhibits bacterial ribosomal RNA function over humanized ribosomes; E. coli WT GFP vs humanized-ribosome RFP mutants, fluorescence, 24 h; active compounds read low; DMSO median 0, no signal -100; GFP signal change (wild-type ribosome), % (concentration not given with the values); 1.6% of 350,000 active; AID 720706;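 active = significant combined selectivity score with lowered wild-type GFP, culture density cut under 30%, mutant RFP and density less affected; inactive = any of these conditions unmet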; also: one replicate is shown; some compounds called inactive have numbers as strong as hits
# Ecoli growth: blocks Escherichia coli growth; 0.21% of 330,000 active; OD600 absorbance (test concentration not listed); OD600, 23 h; active compounds read low;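 active = OD600 absorbance below the run mean of sample wells minus 3.6 SD, in any replicate, cut at about 0.56 in these data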;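 also: stock transfer was 300 nL into about 60 µL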
# FGF22 binding: FGF22 (human) thermal shift binding; Q9HCT0; AID 651658; 1.5% of 340,000 active; calls only at 9.99 µM; recombinant FGF22 thermal shift, SYPRO orange fluorescence; percent of sucrose octasulfate shift, DMSO zero;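 active = melting point raised past a set limit in the mean and every replicate; inconclusive = no clear call; three in four hits are not shown here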
# MLL AF4-AF9 inh: MLL-AF4/AF9 protein interaction inhibition; P42568; AlphaScreen, biotin-AF4 peptide binding to FLAG-AF9; inhibition, % at 10 µM; 0.47% of 350,000 active; AID 651704;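 active = every replicate reaching a set inhibition limit, whatever the replicate mean, cut at about 25% in these data; inconclusive = mean inhibition reaches that limit but some replicates miss it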;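 also: 0% = plate neutral control median and 100% = total signal loss; the record names both 10 and 1 µM as test concentration; the first replicate is given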
# Target sequence (P42568 whole entry, looked up): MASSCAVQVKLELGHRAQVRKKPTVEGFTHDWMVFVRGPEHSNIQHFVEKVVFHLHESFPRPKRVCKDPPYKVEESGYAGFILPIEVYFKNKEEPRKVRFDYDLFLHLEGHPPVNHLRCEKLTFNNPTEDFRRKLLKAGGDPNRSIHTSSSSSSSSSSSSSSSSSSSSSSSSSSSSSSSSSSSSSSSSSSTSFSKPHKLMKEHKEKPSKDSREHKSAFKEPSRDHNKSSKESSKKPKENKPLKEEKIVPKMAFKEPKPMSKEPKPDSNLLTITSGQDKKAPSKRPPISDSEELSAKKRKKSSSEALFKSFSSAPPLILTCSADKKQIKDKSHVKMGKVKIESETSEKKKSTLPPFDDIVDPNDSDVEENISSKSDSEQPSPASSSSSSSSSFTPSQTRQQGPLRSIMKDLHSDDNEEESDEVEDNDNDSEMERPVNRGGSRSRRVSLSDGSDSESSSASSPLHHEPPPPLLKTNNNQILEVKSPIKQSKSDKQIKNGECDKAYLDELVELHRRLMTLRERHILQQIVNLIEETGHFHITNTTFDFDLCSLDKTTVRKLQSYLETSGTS
# HNF4A DNA FP: change in binding of human HNF4 alpha to DNA; 0.3% of 360,000 active; AID 1224865; HNF4a-FITC DNA binding, fluorescence polarization, 1 h; activity change, % at 10 µM; in the data active = activity change above about 30%, passing the limit was not always enough;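 also: controls were the assay level and a saturating level of protein; the project sought stronger binding though the title names inhibitors; some compounds called inactive have numbers as strong as hits; positive values seem to mean higher polarization but the record does not say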
# Target sequence (P41235 whole entry, looked up): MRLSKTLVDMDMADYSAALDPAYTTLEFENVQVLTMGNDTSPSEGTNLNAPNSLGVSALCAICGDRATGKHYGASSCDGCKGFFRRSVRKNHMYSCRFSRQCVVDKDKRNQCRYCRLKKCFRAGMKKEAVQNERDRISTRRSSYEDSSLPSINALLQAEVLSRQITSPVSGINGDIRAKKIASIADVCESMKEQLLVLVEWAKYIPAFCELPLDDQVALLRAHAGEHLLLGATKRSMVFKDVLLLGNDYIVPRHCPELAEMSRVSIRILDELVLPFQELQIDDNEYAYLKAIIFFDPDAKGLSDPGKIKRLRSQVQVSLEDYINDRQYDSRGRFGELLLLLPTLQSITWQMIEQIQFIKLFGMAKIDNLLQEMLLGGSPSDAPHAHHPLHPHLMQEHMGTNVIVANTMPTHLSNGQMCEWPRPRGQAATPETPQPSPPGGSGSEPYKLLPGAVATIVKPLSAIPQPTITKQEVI
# rRNA inh HTS OD600: further read-out of rRNA inh HTS, marked with its call; OD600 change, %; measured here: OD600 growth;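 optical density of the mix in the first replicate; 0 = DMSO median and -100 = no signal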
# rRNA inh HTS RFP: further read-out of rRNA inh HTS, marked with its call; RFP signal change, %; measured here: RFP humanized mutant strains;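 first replicate; 0 = DMSO median and -100 = no signal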
# An asterisk follows results filed as active; i = inactive; ? = inconclusive; nt = not tested or not shown; + = active, no number. Some of the compounds tested; rates above refer to the full screens.
SMILES,Vif A3G,ALR inh,rRNA inh HTS,rRNA inh HTS OD600,rRNA inh HTS RFP,Ecoli growth,FGF22 binding,MLL AF4-AF9 inh,HNF4A DNA FP
CCn1nnc2cc(C(=O)NCC(c3ccccc3OC)N(C)C)ccc21 (centres undefined),nt,nt,6,7,3.3,0.65,i,4.8,0.2
Cc1ccc(Nc2n[nH]c(=S)s2)c(C)c1,-5%,nt,-8,3,2.2,nt,i,-4.7,-4.5
COc1ccc(S(=O)(=O)Nc2ccc3c(c2)C(=O)N([C@H](C)CO)C[C@H](C)[C@H](CN(C)C(=O)NC2CCCCC2)OCCCC[C@H](C)O3)cc1,nt,nt,0,-11,3.2,nt,i,2.0,nt
CCCN(C(=O)c1ccc(N(C)S(=O)(=O)c2ccc(C)cc2)cc1)C1CCS(=O)(=O)C1 (centres undefined),0%,nt,9,-2,1.1,0.63,nt,1.8,-0.2
CCC(=O)N1[C@H](CNC(C)=O)[C@@H](c2ccc(-c3cccc(F)c3)cc2)[C@@H]1CO,nt,nt,-1,-2,-0.2,nt,i,-0.5,nt
Cc1cccc2nc(CSc3ccc(Cl)cc3)cn12,0%,nt,-34,-51,-3.4,0.62,i,0.4,-2.4
CN(Cc1ccco1)C(=O)CSc1nn2c(=O)c(C(C)(C)C)nnc2s1,nt,31,0,-2,0.3,0.67,i,-1.8,0.1
COc1ccc(CN(C)CCCn2ccc(N)nc2=O)cc1OC,1%,nt,7,-2,-10,nt,i,-1.2,-5.2
O=C(C[C@H]1CC[C@H]2[C@@H](COC[C@@H](O)CN2Cc2ccccc2)O1)NCc1ccccc1Cl,nt,nt,-11,-13,-1.9,nt,i,1.1,nt
CCOc1ccc(Cn2nnc(-c3ccc(S(C)(=O)=O)cc3)n2)cc1OCC,-7%,nt,14,22,-3.1,0.67,i,-0.6,-1.0
O=C(CNC(=S)N(Cc1ccccc1)Cc1ccccc1F)NCCc1ccccc1,nt,nt,-24,-25,1.9,0.72,nt,0.5,3.3
COc1cccc(C2C(C(=O)Nc3ccc(C)cc3C)=C(C)Nc3ncnn32)c1OC (centres undefined),0%,0,nt,nt,nt,0.64,nt,nt,-2.1
O=C(COC(=O)/C=C/c1ccco1)Nc1ncc(Cl)cc1Cl,?,6,9,4,6.0,0.7,i,-1.7,-7.5
COCCNC(=O)Cn1nc(Cc2ccncc2)c2ccccc2c1=O,8%,-6,11,18,0.8,0.73,i,1.1,-0.2
O=C(O)CSc1nnc2n(-c3ccccc3)c(=O)c3ccccc3n12,nt,3,4,13,0.1,0.66,i,0.8,0.5
C[C@H](CO)N1C[C@H](C)[C@H](CN(C)C(=O)NC2CCCCC2)Oc2ccc(NC(=O)Nc3ccc(C(F)(F)F)cc3)cc2C1=O,nt,nt,-5,2,-0.3,nt,i,0.3,nt
C[C@@H]1CN([C@@H](C)CO)C(=O)c2cc(NS(=O)(=O)c3cn(C)cn3)ccc2O[C@@H](C)CCCCO[C@@H]1CN(C)C(=O)Cc1ccccc1,nt,nt,1,10,-1.7,nt,i,0.1,nt
C/C=C/c1cnc2c(c1)C(=O)N([C@@H](C)CO)C[C@@H](C)[C@H](CN(C)C(=O)c1cccc(F)c1)O2,nt,nt,0,-7,-6.8,nt,i,-2.5,nt
CCN1C(=O)C(=O)N(CC(=O)N(C)CC(=O)Nc2ccccc2C(F)(F)F)C1=O,nt,0,7,13,0.3,0.69,i,-1.2,1.1
CCOc1ccc(Cl)cc1CNCCCSc1ncccn1,?,-14,4,4,0.2,0.68,i,7.4,1.6
CC(C)C(c1nnnn1CCc1ccccc1)N1CCSCC1 (centres undefined),0%,nt,-12,-6,-0.6,0.7,+,-3.1,0.7
CCOCCCNC(=O)C(c1ccc(Cl)cc1)N(Cc1cccs1)C(=O)CNC(C)=O (centres undefined),-7%,3,nt,nt,nt,0.65,nt,nt,3.8
C[C@H](CO)N1C[C@H](C)[C@@H](CN(C)S(C)(=O)=O)Oc2ncc(C#Cc3ccc(F)cc3)cc2C1=O,nt,nt,0,0,0.6,nt,i,3.5,nt
C=CCNC(=O)c1ccc(N(Cc2ccccc2)S(C)(=O)=O)cc1,13%,-9,13,7,0.1,0.64,i,2.1,-1.9
Cc1ccc(-c2cnc3c(c2)C(=O)N([C@@H](C)CO)C[C@H](C)[C@@H](CN(C)C(=O)c2cccnc2)O3)cc1,nt,nt,-2,0,-6.0,nt,i,-0.4,nt

# The results go on.
SMILES,Vif A3G,ALR inh,rRNA inh HTS,rRNA inh HTS OD600,rRNA inh HTS RFP,Ecoli growth,FGF22 binding,MLL AF4-AF9 inh,HNF4A DNA FP
O=C(Nc1nnc(SCCC2OCCO2)s1)C1CC(=O)N(c2ccccc2)C1 (centres undefined),nt,-13,-11,-10,-1.1,0.7,i,?,-0.3
O=C(NCC(F)(F)F)C1C(=O)Nc2ccccc2C(=O)N1Cc1ccccc1 (centres undefined),nt,nt,20,12,1.3,nt,i,-3.8,1.6
Cc1ccccc1NC(=O)CSC1=C(C#N)C(c2ccsc2)CC(=O)N1 (centres undefined),20%,-21,nt,nt,nt,0.69,nt,nt,2.1
COc1ccc(Nc2ccc(N3C(=O)CCCC3=O)cc2[N+](=O)[O-])cc1OC,15%,-22,nt,nt,nt,0.68,nt,nt,3.6
CNC(=O)NC(=O)C(C)OC(=O)CCCc1nc2ccccc2s1 (centres undefined),nt,nt,2,-6,3.1,0.65,i,-2.7,-6.9
COc1cccc(-c2cc(C(=O)Nc3cccnc3)c3ccccc3n2)c1,nt,8,-24,-21,-2.6,0.69,i,2.1,0.8
CCn1c(SCC(=O)Nc2sccc2C(N)=O)nnc1C1CC1,-3%,nt,16,9,6.1,0.63,i,-0.6,-2.7
CC(C)CCNC(=O)C1CCC(CNS(=O)(=O)c2cccc3nsnc23)CC1 (centres undefined),nt,-3,nt,nt,nt,0.73,nt,nt,-2.0
O/N=C/c1ccc2cccc(O)c2n1,-10%,nt,4,1,6.1,nt,i,3.8,-3.1
CC(c1ccc(F)cc1)n1c(-c2cccs2)n[nH]c1=S (centres undefined),nt,93*,3,-5,-1.9,0.68,i,-2.9,-2.3
O=C1NC(=S)S/C1=C\c1cccc([N+](=O)[O-])c1,0%,nt,-8,4,2.7,0.67,i,-0.1,1.5
CN(Cc1ccccc1F)C(=O)c1ccc(NC(=O)CC2SC(N3CCCCC3)=NC2=O)cc1 (centres undefined),nt,nt,nt,nt,nt,0.65,i,1.5,0.0
COC(=O)CN(c1cc([N+](=O)[O-])ccc1OC)S(C)(=O)=O,22%,nt,16,12,-3.9,0.69,i,-0.6,2.1
C[C@@H]1CN([C@H](C)CO)C(=O)c2cccc(NC(=O)C3CCCCC3)c2O[C@@H]1CN(C)C(=O)NC1CCCCC1,nt,nt,-3,-4,-0.4,nt,i,-0.9,nt
CN1CCN(C(=O)C[C@@H]2C[C@H]3c4cc(NC(=O)NC5CCCC5)ccc4O[C@H]3[C@H](CO)O2)CC1,nt,nt,2,2,0.2,nt,i,0.3,nt
Cc1ccc(C(O)(c2ccccc2)c2ccccc2C(C)N(C)C)c(C)c1 (centres undefined),-1%,-4,nt,nt,nt,0.61,nt,nt,2.7
CC(=O)Nc1ccc(S(=O)(=O)NC(C(=O)O)C2=CCC=CC2)cc1 (centres undefined),26%,nt,6,2,-0.7,0.62,i,3.3,3.0
Cc1[nH][nH]c(=O)c1C=NCc1cccc(C(F)(F)F)c1,-4%,-45,12,8,0.6,0.68,i,-1.7,-2.8
CCc1nnc(NC(=O)C2=CCN(S(=O)(=O)c3ccc(F)cc3)CC2)s1,nt,-2,5,5,0.5,0.68,i,7.5,3.5
CC(C)CC(NC(N)=O)C(=O)OCC(=O)Nc1ccc(OC(F)F)cc1 (centres undefined),-3%,-4,4,7,-3.6,0.69,i,-0.7,-2.6
CNc1nc(NC)nc(NNC(=O)c2ccccc2)n1,-5%,nt,8,6,1.8,nt,i,7.9,-2.6
CC(C)CC#Cc1ccc2c(c1)O[C@@H](CN(C)C(=O)NC1CCCC1)[C@H](C)CN([C@H](C)CO)S2(=O)=O,nt,nt,-4,-4,12,nt,i,5.8,nt
COc1ccc(/C=N/NC(=O)CC(=O)NCc2cccnc2)cc1[N+](=O)[O-],0%,2,17,15,5.4,nt,i,1.4,-2.2
CCn1ncc(N2CCOCC2)c(Cl)c1=O,-4%,0,15,14,10,0.67,i,-1.3,2.6
COC(=O)c1c(NC(=O)COC(=O)CC(NC(C)=O)c2ccccc2)sc(C)c1C (centres undefined),-3%,nt,8,7,2.7,0.71,i,-1.4,-0.7

# Random excerpt: 3 records from the list.
SMILES,Vif A3G,ALR inh,rRNA inh HTS,rRNA inh HTS OD600,rRNA inh HTS RFP,Ecoli growth,FGF22 binding,MLL AF4-AF9 inh,HNF4A DNA FP
CCn1c(SCC(=O)Nc2sccc2C(N)=O)nnc1C1CC1,-3%,nt,16,9,6.1,0.63,i,-0.6,-2.7
COC(=O)CN(c1cc([N+](=O)[O-])ccc1OC)S(C)(=O)=O,22%,nt,16,12,-3.9,0.69,i,-0.6,2.1
CNC(=O)NC(=O)C(C)OC(=O)CCCc1nc2ccccc2s1 (centres undefined),nt,nt,2,-6,3.1,0.65,i,-2.7,-6.9

# Continued.
SMILES,Vif A3G,ALR inh,rRNA inh HTS,rRNA inh HTS OD600,rRNA inh HTS RFP,Ecoli growth,FGF22 binding,MLL AF4-AF9 inh,HNF4A DNA FP
CCOC(=O)/C=C1\CC(=O)Nc2cc(C)c(C)cc2N1,5%,-1,nt,nt,nt,0.66,nt,nt,1.3
CC(=O)Nc1cccc(-c2ccnc3c2CC(C)(C(=O)Nc2ccc(F)c(Cl)c2)O3)c1 (centres undefined),nt,nt,-46,-69,-7.2,nt,i,1.3,1.1
COc1ccc(CCNC(=O)C(=O)NCC2OCCN2S(=O)(=O)c2cccs2)cc1 (centres undefined),nt,-7,nt,nt,nt,0.68,i,-3.2,2.9
COC(=O)CN(c1ccccc1[N+](=O)[O-])S(=O)(=O)c1ccccc1,nt,-1,5,-2,1.1,0.66,i,1.3,-2.1
Cc1ccc(CSCC(=O)Nc2cc(S(=O)(=O)N3CCOCC3)ccc2OC(C)C)cc1,7%,-7,-13,-26,1.4,0.72,i,-21,6.5
CO[C@H]1CN(C)C(=O)c2cc(NC(=O)C3CC3)ccc2OC[C@H](C)N(Cc2cncnc2)C[C@@H]1C,nt,nt,4,6,-1.7,nt,i,-1.3,nt
CCOC(=O)C1=C(C)NC(=S)NC1c1cccs1 (centres undefined),-11%,-2,nt,nt,nt,0.67,nt,nt,0.5
c1ccc2c(c1)nc(N1CCOCC1)c1nncn12,1%,-3,nt,nt,nt,0.71,nt,nt,-1.2
CCC(C)NC(=O)C1c2cc(OC)c(OC)cc2C(=O)N(C)C1c1ccc(OC)cc1 (centres undefined),13%,-6,nt,nt,nt,0.72,nt,nt,1.1
O=S1(=O)N=C2CCCN2C(c2ccc(F)cc2)N1 (centres undefined),8%,nt,nt,nt,nt,0.71,nt,nt,-0.6
Cc1cc2oc(=O)cc(-c3ccccc3)c2c(C)c1-c1ccc(C#N)cc1,1%,nt,-2,1,-0.9,0.71,i,-0.1,6.2
COc1ccc(-c2cc(C(=O)N3CCN(c4ccccc4)CC3)c3ccccc3n2)cc1OC,-2%,nt,nt,nt,nt,0.78,nt,nt,3.8
Cc1ccc(S(=O)(=O)Nc2ccc3c(c2)C(=O)N([C@H](C)CO)C[C@H](C)[C@@H](CN(C)C(=O)Nc2c(C)noc2C)OCCCC[C@@H](C)O3)cc1,nt,nt,5,7,-1.0,nt,i,-3.7,nt
O=S(=O)(c1ccc(F)c(F)c1F)N1CCN(C(=S)NCc2ccccc2)CC1,-4%,-2,1,6,2.5,0.73,nt,-0.7,4.1
